# MT1-MMP reporter: inhibitors of MT1-MMP promoter transcription, cell-based, luciferase reporter, luminescence (AID 618); MT1-MMP promoter luciferase reporter cells, luminescence; calls from a first round at 10 µM; hits with a dose series show EC50 in µM; 87,000 tested, 0.62% active;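 active means over half of the reporter light lost at 10 µM or EC50 under 50 µM; inactive means the rest and hits that failed the dose series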;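 further: actives suppress MT1-MMP promoter-driven transcription so potencies describe inhibitors; HT1080 fibrosarcoma cells; overnight exposure; toxic or luciferase-blocking compounds were not removed from the actives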
# WNV NS2B-NS3 inh: inhibitors of WNV NS2B-NS3 protease, primary screen, biochemical, fluorogenic substrate; fluorogenic substrate Ex360/Em465; stronger effect = lower value; 65,000 tested, 0.18% active; z-score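 (tested at a level between 10 and 100 µM)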;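 active means z-score at -3 or under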;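 further: score is relative to mean and spread of the compound wells of a plate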
# Target sequence (P06935 1371-1501 limits assumed): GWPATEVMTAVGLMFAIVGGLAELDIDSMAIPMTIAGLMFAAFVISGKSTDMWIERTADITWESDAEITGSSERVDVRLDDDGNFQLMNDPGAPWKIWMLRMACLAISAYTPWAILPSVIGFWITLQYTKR
# Target sequence (P06935 1502-1679 limits assumed): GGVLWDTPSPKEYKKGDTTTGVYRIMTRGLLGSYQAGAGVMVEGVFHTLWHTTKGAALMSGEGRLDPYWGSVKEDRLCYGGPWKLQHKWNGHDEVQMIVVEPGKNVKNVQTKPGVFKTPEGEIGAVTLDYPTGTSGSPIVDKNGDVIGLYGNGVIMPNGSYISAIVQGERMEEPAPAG
# Hsc70: Hsc70 inhibitors, probe displacement, primary screen, biochemical, fluorescence polarization (AID 568); Heat shock cognate 71 kDa protein (Homo sapiens); Hsc70 fluorescence polarization, probe displacement; higher % means a stronger effect; strong numbers were not always called active; displacement, % at 20 µM; hits with a dose series show IC50 in µM; 83,000 tested, under 10 active;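 active means displacement above 50% without optical interference and an IC50 on retest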;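 further: ATPase domain with a fluorescein-tagged ATP probe; 0% = vehicle and 100% = excess ADP; read after one hour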
# * marks the source's active call; other numbers are inactive results; i = inactive; . = no result given; + = active, no number. Not all compounds are listed (hit frequency here may not be typical).
SMILES,MT1-MMP reporter,WNV NS2B-NS3 inh,Hsc70
CC(NC(=O)c1noc2c1CCCCC2)c1ccccc1 (stereo not given),i,0.27,-1.8%
CCCCC(=O)NC1=NC(=O)C(C)(C)S1,i,-0.84,-0.3%
Cc1ccc(C(=O)Nc2nc(=O)n(C(=O)c3ccccc3C)s2)cc1,i,.,-3.2%
Cc1nc(C)c(C(=O)Nc2ccc(Oc3ccccc3)cc2)o1,i,-0.13,-2.4%
COc1ccc(OCC(=O)Nc2cccc(NC(=O)COc3ccc(OC)cc3)n2)cc1,i,-0.57,1.3%
COc1cc(C)c(Cl)cc1S(=O)(=O)NCC1CCCO1 (stereo not given),i,0.74,8.9%
O=C(CSc1nnc2ncccn12)N1CCCCCC1,i,-0.00971,3.2%
CCOC(=O)c1cccc(NC(=O)CN(c2ccc(C)cc2)S(=O)(=O)c2c(C)noc2C)c1,i,0.31,-4.3%
COc1ccc(N2C(=O)CC(Sc3nnc(-c4ccccc4)o3)C2=O)cc1 (stereo not given),i,-0.08,0.7%
COc1ccc(C2CC(C(F)(F)F)n3nc(C(=O)O)c(Cl)c3N2)cc1OC (stereo not given),i,-0.38,4.2%
COc1cc(C(=O)Nc2c(-c3ccccn3)c(=O)c3ccccc3n2C)cc(OC)c1OC,i,-0.59,-6.5%
COCCn1c(SC)nnc1-c1c[nH]c2ccccc12,i,-0.58,2.6%
CCCn1nnnc1SCC(=O)N1CCCC1,i,.,-0.4%
CC(=O)OC(C(=O)NC1CCCCC1)c1ccc(C#N)cc1 (stereo not given),i,-0.86,-2.9%
CC1=CC(C)(C)N(C(=O)CSc2ncn[nH]2)c2ccc(C)cc21,i,.,0.6%
S=c1[nH]nc(-c2ccc(Cl)cc2)n1CC1CCCO1 (stereo not given),i,.,-1.4%
CCOc1cc2[nH]c(=O)n(CCCC(=O)NCc3ccco3)c(=O)c2cc1OCC,i,0.9,-8.0%
Cc1ccc(S(=O)(=O)N2CCN=C2c2ccccc2)cc1C,i,.,-7.4%
Cn1c(=O)c2nc(-c3ccc(Cl)cc3Cl)oc2c2ccccc21,i,-0.81,8.3%
CCN1CCN(c2nc3c(C)cccn3c(=O)c2/C=C(\C#N)S(=O)(=O)c2ccccc2)CC1,i,-0.79,14.9%
c1ccc2[nH]c(CSc3nnc(-c4ccncc4)o3)nc2c1,i,0.08,3.6%
O=C(O)c1cccc(NC(=O)C23CC4CC(C2)CC(n2cnc(Cl)n2)(C4)C3)c1,i,0.00479,0.8%
COc1ccc(NC(=O)C(c2ccccc2)N(C)C(=O)c2cnccn2)cc1 (stereo not given),i,-0.19,-0.7%
N=c1n(CCN2CCCC2)c2ccccc2n1CC(O)c1ccco1 (stereo not given),i,-1.04,6.0%
CCn1c(=O)c(C(=O)Nc2ccccc2S(N)(=O)=O)c(O)c2ccccc21,i,-0.61,2.0%
Cc1nnc(SCc2nnc(-c3ccc(Cl)cc3)o2)n1-c1ccccc1,i,-0.07,8.2%
OC1CCN(c2c3c(nc4cc(-c5ccc(Cl)cc5)nn24)CCC3)CC1,i,.,4.7%
Cc1nonc1OCCn1nnnc1N,i,-0.72,-5.3%
CCSc1nc2c(c(=O)n1-c1ccc(F)cc1)SCC2,i,.,-5.5%
COc1cccc(-n2cnc3cccc(N)c32)c1,i,0.68,-8.5%
O=C(c1ccc2snnc2c1)N1CCOCC1,i,0.55,-0.7%
COc1ccc(NC(=O)CSC2CC(=O)N(c3ccc4c(c3)OCCO4)C2=O)cc1 (stereo not given),i,0.14,-2.0%
N#CC1=C(N)N(c2ccccc2)C2=C(C(=O)CCC2)C1c1ccccc1 (stereo not given),i,.,3.4%
O=C(CSc1nnnn1-c1cccc2ccccc12)Nc1ccc(N2CCOCC2)c(Cl)c1,i,.,-1.8%
O=C(CN1CCOCC1)Nc1nc2ccc(Br)cc2s1,i,.,15.2%
O=C(NCc1ccc(F)cc1)c1noc2c1CCCCC2,i,-0.22,-4.3%
CC(C)=C(NC(=O)c1ccco1)C(=O)NCCc1nc2ccccc2[nH]1,i,-0.28,-6.1%
O=C(O)c1ccc(NCc2cccnc2)cc1,i,0.03,9.3%
O=C(O)CCCN1C(=O)NC2NC(=O)NC21 (stereo not given),i,0.21,3.3%
Cc1c(C(=O)Nc2cccc(Cl)c2)oc2ccc(S(=O)(=O)N3CCC4(CC3)OCCO4)cc12,i,-0.76,2.4%

# 5 of the compounds above, with values under each structure.
# Screens in order – MT1-MMP reporter	WNV NS2B-NS3 inh	Hsc70
- OC1CCN(c2c3c(nc4cc(-c5ccc(Cl)cc5)nn24)CCC3)CC1
 : i	.	4.7%
- CCn1c(=O)c(C(=O)Nc2ccccc2S(N)(=O)=O)c(O)c2ccccc21
 : i	-0.61	2.0%
- COc1ccc(NC(=O)CSC2CC(=O)N(c3ccc4c(c3)OCCO4)C2=O)cc1 (stereo not given)
 : i	0.14	-2.0%
- O=C(NCc1ccc(F)cc1)c1noc2c1CCCCC2
 : i	-0.22	-4.3%
- O=C(O)CCCN1C(=O)NC2NC(=O)NC21 (stereo not given)
 : i	0.21	3.3%

# Sorted by length of the SMILES (lowest first): some entries from above
SMILES,MT1-MMP reporter,WNV NS2B-NS3 inh,Hsc70
CC(NC(=O)c1noc2c1CCCCC2)c1ccccc1 (stereo not given),i,0.27,-1.8%
CC(=O)OC(C(=O)NC1CCCCC1)c1ccc(C#N)cc1 (stereo not given),i,-0.86,-2.9%
CCOC(=O)c1cccc(NC(=O)CN(c2ccc(C)cc2)S(=O)(=O)c2c(C)noc2C)c1,i,0.31,-4.3%

# Other entries:
SMILES,MT1-MMP reporter,WNV NS2B-NS3 inh,Hsc70
COc1ccccc1-n1c(C)nnc1SCC(=O)NCc1ccccc1,i,.,-1.8%
O=C(Nc1nc(-c2ccc3c(c2)OCO3)cs1)C1CC1,i,-0.71,7.1%
CCC(C)(C)n1nnnc1C(c1ccc(Cl)cc1)N1CCN(C)CC1 (stereo not given),i,-0.68,0.3%
C/C(N)=C(/C#N)C(=O)COc1ncnc2ccccc12,i,1.81,2.5%
CCCCS(=O)CC(O)COc1ccc(C(C)(C)C)cc1 (stereo not given),i,-1.65,1.4%
CCCC(=O)NCCc1cc2ccc(C)c(C)c2[nH]c1=O,i,-0.15,5.6%
CCOC(=O)c1ccc(NC(=O)CSc2nnc(C3CCCCC3)n2C)cc1,i,.,-1.2%
CCCOCCOC(=O)C1=C(C)NC(=O)NC1c1cc(Cl)c(O)c(OC)c1 (stereo not given),i,-0.1,4.9%
O=c1[nH]c2cnccc2n1-c1ccccc1,i,-0.26,3.9%
CCOC(=O)c1cnc2c(Cl)cccc2c1NCCN(C)C,i,.,4.9%
O=C(Cc1ccc(-c2ccccc2)cc1)NCCN1CCOCC1,i,0.33,-0.9%
COc1cc(C(=O)N(CCc2ccccc2)C2CC3CCC(C2)N3C)cc(OC)c1OC (stereo not given),i,-0.01,-5.7%
CCOc1ccc(NC(=O)C2CSC(c3ccncc3)=N2)cc1 (stereo not given),i,0.17,2.9%
COc1cc(-c2nc3n(n2)C(c2cccc(OC)c2OC)C2=C(CCCC2=O)N3)cc(OC)c1OC (stereo not given),i,0.42,-0.3%
CCN(CC)c1ccc2c(c1)OC(N)=C(C#N)C2c1cccnc1 (stereo not given),+,-2.91,-85.3%
CC(CCCC(C)(C)O)NCCO (stereo not given),i,-0.58,-2.4%
CCS(=O)(=O)N1CCC(NC(=O)c2cc(OC)cc(OC)c2)CC1,i,.,3.8%
CCOC(=O)N1CCC(NC(=O)c2ccc(CS(=O)(=O)c3ccc(OC)cc3)o2)CC1,i,-0.24,2.8%
CCc1[nH]c(=O)c(C#N)c2c1CSC(C)(C)C2,i,-0.89,2.8%
CCOc1cc(/C=C(/C#N)c2ccc(F)cc2)ccc1OCc1ccc(C(=O)O)o1,i,-1.17,3.6%
COc1ccccc1OCC(=O)N1CCNC1=O,i,0.15,1.6%
CCCn1c(SCC(=O)/C(C#N)=C(\C)N)n[nH]c1=O,i,-1.38,0.0%
CSCCC(NC(=O)c1cncc(Br)c1)C(=O)O (stereo not given),i,0.43,-8.4%
CCOC(=O)C1CCCN(C(=O)c2cc(-c3ccccc3)on2)C1 (stereo not given),i,1.31,2.7%
Cc1cccc(NC(=O)Cn2c(=O)oc3ccccc32)c1,i,-0.35,1.1%
COCCCn1c2nc3ccccc3nc2c2c(=O)n(Cc3ccccc3Cl)cnc21,i,-0.83,-1.2%
O=C(Cn1c(=O)oc2ccccc21)N1CCCCC1,i,-0.63,-2.1%
O=C(NCCc1ccccc1)C1CCCN(C(=O)NC2CCCCC2)C1 (stereo not given),i,-1.06,-5.4%
O=C(Cn1c(=O)oc2ccccc21)N1CCN(c2ccccc2)CC1,i,-0.64,2.0%
O=C(Nc1nc(-c2ccc3c(c2)OCO3)cs1)C1COc2ccccc2O1 (stereo not given),i,0.23,1.5%
O=C(COC(=O)c1cnccn1)c1ccccc1,i,-1.22,3.8%
COc1ccc(S(=O)(=O)N[C@@H](CC(C)C)C(=O)O)cc1,i,-0.91,1.0%
O=C(COC(=O)c1ccccc1)NCc1ccco1,i,-0.14,1.3%
Cc1onc(-c2ccccc2Cl)c1C(=O)N1CC(C)OC(C)C1 (stereo not given),i,-0.32,-0.1%
COC(=O)COC(=O)c1ccc(Oc2nc(OC)nc(N(C)C)n2)cc1,i,-0.56,-5.8%
COc1ccc(CN2C(=O)C(O)(CC(=O)c3c(C)n[nH]c3C)c3ccccc32)cc1OC (stereo not given),i,-0.59,5.9%
CC1CCCN(C(=O)CSCC(=O)Nc2nc(-c3cccs3)cs2)C1 (stereo not given),i,0.68,-5.7%
O=C(NCc1ccc(F)cc1)C1CCCN(S(=O)(=O)c2cccc3nsnc23)C1 (stereo not given),i,.,-3.3%
Cc1cccc(NC2=NC(=S)N(CC#N)C23CCCCC3)c1,i,.,2.7%
CC(=O)c1cccc(NC2c3ncccc3C(=O)N2Cc2ccco2)c1 (stereo not given),i,0.42,-1.9%

# Record cards (already shown). Order of screens: MT1-MMP reporter | WNV NS2B-NS3 inh | Hsc70
# Record of CSCCC(NC(=O)c1cncc(Br)c1)C(=O)O (stereo not given) : i | 0.43 | -8.4%
# Record of O=C(Cn1c(=O)oc2ccccc21)N1CCCCC1 : i | -0.63 | -2.1%

# (next part)
SMILES,MT1-MMP reporter,WNV NS2B-NS3 inh,Hsc70
CCCCCCn1c(N(CC)CC)nc2c1c(=O)[nH]c(=O)n2C,i,1.96,-6.9%
O=C(NCc1ccco1)C(c1cccnc1)N(C(=O)Cn1nnc2ccccc21)c1ccc(F)cc1 (stereo not given),i,0.49,2.1%
N#Cc1ccc(CSc2ncnc3c2cnn3Cc2ccccc2)cc1,i,-0.00792,-4.7%
COc1ccc(-c2nnc3sc(-c4ccccc4OC)nn23)cc1,i,0.43,-3.5%
C1CCC2(CC1)C1=C(CCCC1)Nc1nnnn12,i,-0.13,-1.3%
CC(=NCCCN(C)C)C1=C(O)c2ccccc2C1=O,i,.,1.6%
CC1CC(=O)c2cn3c(nc2C1)nc1ccccc13 (stereo not given),i,.,-4.2%
Cc1nc(NC(N)=S)sc1C(=O)Nc1ccccc1,i,.,1.6%
CCOC(=O)c1ccc(NC(=O)NCc2ccn(CC)n2)cc1,i,-0.1,-0.5%
Cc1ccc(-c2noc(CSc3nnc(-c4ccccc4)n3C)n2)cc1,i,2.72,-3.0%
COC(=O)c1c(NC(=O)CN2CCN(c3ccccc3OC)CC2)c2cc(C)ccc2n1C,i,0.29,-3.3%
O=C(CSc1ccccc1)Nc1ccc(S(=O)(=O)NCC2CCCO2)cc1 (stereo not given),i,-0.98,-3.1%
O=C(Nc1nncs1)c1cccc(S(=O)(=O)N2CCOCC2)c1,i,.,1.2%
Cc1cc(C)n(-c2c(F)c(F)c(CN3CCOCC3)c(F)c2F)n1,i,-0.64,1.5%
Cc1cc(OCC(=O)N2CCc3ccccc3C2)c2c(-c3ccccc3)cc(=O)oc2c1,i,.,-1.8%
COC(=O)c1ccc(C2/C(=C(\O)c3ccc4c(c3)OCCO4)C(=O)C(=O)N2CCCN(C)C)cc1 (stereo not given),i,1.06,0.3%
COC(=O)c1ccccc1NC(=O)c1cncc(Br)c1,i,-0.58,1.6%
COc1cccc(S(=O)(=O)Nc2cccnc2)c1,i,-0.03,-3.0%
O=C(O)CCC(=O)N1CCc2cc(S(=O)(=O)NC3CCCc4ccccc43)ccc21 (stereo not given),i,0.45,5.0%
Clc1ccc(C2=CSC3=NCCN23)cc1Cl,i,0.62,-2.0%
Cc1nnc(NC(=O)CSc2nccn2C)s1,i,.,-5.1%
Cc1nnc2c3ccccc3c(-c3ccccc3)nn12,i,-0.78,4.0%
Cc1cc(C)cc(N(CC(=O)NCc2ccco2)S(=O)(=O)c2c(C)noc2C)c1,i,1.16,-1.0%
CCN(CC)C(=O)N1CCC(NC(=O)c2ccccc2)CC1,i,0.24,-4.8%
CC(=O)Nc1ccc2c(c1)ncn2C1CCCCC1,i,.,0.3%
CCn1c(SCC(=O)c2cc(OC)ccc2OC)nnc1-c1ccncc1,i,-0.06,2.2%
CC(=O)c1cccc(N(CC(=O)NCC2CCCO2)C(=O)CCC(=O)Nc2cc(C)on2)c1 (stereo not given),i,1.7,-0.2%
COc1ccc2[nH]c3c(NCCN(C(C)C)C(C)C)ncnc3c2c1,i,0.86,7.9%
Cc1oc(-c2ccccc2)nc1Cn1cccc1C1=NC(c2ccccc2)CO1 (stereo not given),i,1.24,-10.0%

# From PubChem
